miR-21 reporter – qHTS Assay for Modulators of miRNAs and/orActivators of miR-21. HeLa miR-21 FLuc reporter, luciferase, 48 h. Potency, µM (highest dose often 38.3 µM), for inactives: at the highest dose reporter change, positive = more light. 340,000 tested, under 10 active. AID 2288, 2010; active = well fitted rising curve with a large enough effect; inconclusive = small, poorly fitted or top-dose-only effect; inactive = no such curve, though single readings can be large or run the other way;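 note: % of control where 0% means no effect; miR-21 action dims this reporter so a rising signal means less miR-21 action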
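HeLa cells endogenously expressing miR-21, stably carrying CMV-driven firefly luciferase with a downstream miR-21 binding site, 2000 cells/well. Titrations up to approximately 40 uM, 48 hours; luciferase luminescence read.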
GLA inh pH 4.5 – qHTS Assay for Inhibitors of Human alpha-Galactosidase at pH 4.5. purified enzyme, 4-MU-alpha-Gal fluorescence, pH 4.5. activity change, negative = inhibition, % at 105 µM. 230,000 tested, under 10 active. AID 1467, 2008; inconclusive = small, poorly fitted or top-dose-only inhibition, or a rising curve; inactive = flat fitted curve, though single readings scatter; no compound was filed as active;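 note: 0% = full activity with enzyme and -100% = basal without enzyme; dose as in the result columns while the protocol names 77 µM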
Rango dissoc inh – qHTS Assay for Inhibitors of RanGTP induced Rango (Ran-regulated importin-beta cargo) - Importin beta complex dissociation | Snurportin-1 (Homo sapiens) + GTP-binding nuclear protein Ran (Homo sapiens) + Importin … | Biochemical FRET Rango-importin beta, RanGTP-induced dissociation | Potency, µM (series often up to 46.1 µM), inactives show at the top dose activity change, negative = inhibition | actives 0.071% (n = 340,000); active means falling FRET ratio curve, often poorly fitted, with flat reads before Ran was added; inconclusive means other falling curves, or compound fluorescence or quenching; inactive means flat or rising ratio curve;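 note: potency is the fitted concentration of half-maximal effect; % of control where 0% means no effect; nearly all actives have a fitted effect of over 45% in size; -100% = wells without RanGTP and RCC1; the record marks most hits as doubtful in a second field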
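Compounds sat 5 min at room temperature with 0.1 uM Rango biosensor plus 0.25 uM importin beta, then FRET pre-read. RanGTP-RCC1 (0.6 uM Ran, 2mM GTP, 0.2 uM RCC1) added for 45 min, and the CFP/YFP post-read measured blocked complex dissociation.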
Rango complex inh – qHTS Assay for Inhibitors of Rango (Ran-regulated importin-beta cargo) - Importin beta complex formation. actives 0.031% (n = 340,000). Rango CFP/YFP FRET sensor + importin beta, 45 min. Potency, µM (highest dose often 92.2 µM), for inactives: top-dose inhibition of complex formation; active = rising FRET ratio curve, often small or poorly fitted; inconclusive = mostly compound fluorescence or quenching in the first reads; inactive = flat curves in all reads;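 note: potency is the fitted concentration of half-maximal effect; 0% = DMSO wells and 100% = buffer wells lacking importin beta; nearly all actives have a fitted effect of over 15% in size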
Target sequence (Q14974 whole entry, looked up): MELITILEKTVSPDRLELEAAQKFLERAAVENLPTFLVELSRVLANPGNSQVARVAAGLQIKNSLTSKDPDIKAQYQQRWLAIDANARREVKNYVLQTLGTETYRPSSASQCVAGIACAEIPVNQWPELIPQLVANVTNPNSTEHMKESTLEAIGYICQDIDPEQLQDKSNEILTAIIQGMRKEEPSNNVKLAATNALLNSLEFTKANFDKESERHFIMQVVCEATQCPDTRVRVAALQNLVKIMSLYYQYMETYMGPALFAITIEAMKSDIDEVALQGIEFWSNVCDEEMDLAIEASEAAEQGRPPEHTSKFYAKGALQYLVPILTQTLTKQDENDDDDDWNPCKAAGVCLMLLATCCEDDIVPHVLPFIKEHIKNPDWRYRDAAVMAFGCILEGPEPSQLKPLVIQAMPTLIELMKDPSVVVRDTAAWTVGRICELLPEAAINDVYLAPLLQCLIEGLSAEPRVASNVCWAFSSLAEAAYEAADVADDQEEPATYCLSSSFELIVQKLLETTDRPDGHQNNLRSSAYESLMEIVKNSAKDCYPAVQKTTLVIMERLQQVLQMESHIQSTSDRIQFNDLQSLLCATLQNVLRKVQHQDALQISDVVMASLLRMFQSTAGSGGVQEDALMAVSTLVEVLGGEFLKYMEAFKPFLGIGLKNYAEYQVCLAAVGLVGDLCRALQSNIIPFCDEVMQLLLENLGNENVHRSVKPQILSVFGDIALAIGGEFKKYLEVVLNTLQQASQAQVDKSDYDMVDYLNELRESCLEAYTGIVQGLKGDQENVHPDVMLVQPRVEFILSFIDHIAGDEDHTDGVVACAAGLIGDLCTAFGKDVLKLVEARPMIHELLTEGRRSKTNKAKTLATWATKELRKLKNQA
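FRET biosensor Rango (snurportin 1 IBB between N-terminal EYFP and C-terminal Cerulean), 50 nM in PBS/1 mM DTT/0.02% Tween-20/0.1% BSA, preincubated 5 min RT with compound; 0.125 microM importin beta added, 45 min RT, CFP/YFP FRET ratio read.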
Numbers without * were called inactive; ? = inconclusive; · = not tested or not shown; & = joins results of further samples.

SMILES	miR-21 reporter	GLA inh pH 4.5	Rango dissoc inh	Rango complex inh
CC(=O)Nc1ccc(S(=O)(=O)NCCc2cc3ccc(C)c(C)c3[nH]c2=O)cc1	-2%	·	6%	2.6%
O=C(NCC1CCCO1)c1ccccc1NS(=O)(=O)c1ccc(Br)s1 (configuration not stated)	·	·	12%	0.9%
COc1cc(NS(=O)(=O)c2ccc(N=Cc3c(C)[nH]n(-c4ccccc4)c3=O)cc2)nc(OC)n1	-6%	-29	-7%	-0.6%
CCOc1cc(CNCc2ccccc2)ccc1OCC(=O)NC1CCCCC1	11%	·	15%	-4.0%
COc1cc(OC)cc(C(=O)Nc2ccc3c(c2)CCCN3C(=O)c2cccs2)c1	22%&-4%	·	-9%	-6.8%
Cc1cccc(NC(=O)CSc2nnc(-c3ccc(S(=O)(=O)N4CCOCC4)cc3)n2C)c1	9%	7	7%	-0.4%
CCOc1ccc(NCc2cc3cc(OC)ccc3[nH]c2=O)cc1	9%	-2	?	?
CCOc1ccc(NC(=O)c2ccc(NC(=O)COC(=O)c3ccc(NC(=O)CC#N)cc3)cc2)cc1	·	·	-6%	-6.9%
O=C(CCCc1ccccc1)NCCCN1CCOCC1	-8%	10	6%	-1.0%
Fc1cccc2sc(Nc3nc4cc5c(cc4s3)OCCO5)nc12	-60%	0	2%	?
N#CCOC(=O)[C@H](Cc1c[nH]c2ccccc12)NS(=O)(=O)c1ccc(Cl)cc1	0%	·	-5%	4.9%
Cc1cc2c(ccc3[nH]onc32)n1	-5%	-23	?	?
Nc1cc(=O)[nH]c(SCc2ccccc2Cl)n1	0%	·	-1%	-2.3%
Cn1cccc1C(=O)N1CCc2ccccc2C1	-20%	·	3%	0.2%
Cc1cccc(C(=O)OCC(=O)NCCN2C(=O)CSC2=O)c1[N+](=O)[O-]	·	·	-6%	-0.1%
Cn1c(=O)c2[nH]c(N=NN3CCCCC3)nc2n(C)c1=O	·	·	0%	0.5%
Cc1c(NC(=O)c2coc(=O)c(Br)c2)c(=O)n(-c2ccccc2)n1C	-13%	3	?	?
C=CCn1c(Cc2csc(N)n2)nnc1SCc1ccc(C(=O)OC)cc1	-7%	6	-10%	-2.1%
COc1cc(OC)cc(-c2cc3nc(C)c(CCC(=O)O)c(=O)n3[nH]2)c1	0%	3	-12%	-3.8%
Cc1ccc(S(=O)(=O)NCc2csc(-c3cccs3)n2)cc1	-4%	-1	15%	-3.3%
O=C(Nc1ccccc1N1CCOCC1)c1ccc(Cl)c(S(=O)(=O)NCc2ccco2)c1	8%	-5	1%	0.6%
CCCCCCCNC(=O)C1(CC2CC(c3cccc(Br)c3)=NO2)CCN(C(=O)OC(C)(C)C)CC1 (configuration not stated)	-10%	·	17%	-3.2%
CN(C)CCCOc1nc2c(c(=O)n(C)c(=O)n2C)n1C	0%	6	-14%	-4.1%
Fc1ccc(NC(=S)N2CCCC(c3ccccc3)=N2)cc1	-1%	-6	1%	4.3%
COCCN(C(=O)COC(=O)c1cc2ccccc2cc1O)c1c(N)n(Cc2ccccc2)c(=O)[nH]c1=O	·	·	7%	-1.6%

Remaining list, next part
SMILES	miR-21 reporter	GLA inh pH 4.5	Rango dissoc inh	Rango complex inh
Cc1ccc2cc(CN(CCN3CCOCC3)C(=O)NCc3ccccc3)c(=O)[nH]c2c1C	-16%	8	-2%	0.7%
CCOC(=O)C1Oc2ccccc2C(c2cccc3ccccc23)=C1C(=O)OC (configuration not stated)	·	-6	?	0.7%
CN(Cc1ccccc1)C(=O)CCC1CCN(C(=O)CCC(F)(F)F)CC1	-36%	·	8%	0.6%
CCc1ccc(-c2nn(Cc3ccccc3)cc2C(=O)NCC2CCCO2)cc1 (configuration not stated)	·	·	0%	0.0%
COc1ccc(NS(=O)(=O)c2cc(C)ccc2OC)cc1OC	-2%	-8	1%	0.1%
O=C(O)C[C@H]1c2cc(C(F)(F)F)ccc2S(=O)(=O)N1C1CCCCC1	·	·	1%	-2.4%
O=C(/C=C/c1cccc([N+](=O)[O-])c1)NC(=S)Nc1cccc(NC(=O)c2ccccc2Cl)c1	-10%	-1	4%	0.3%
Cc1cc(Cl)ccc1OCC(=O)OCC(=O)NC1CCS(=O)(=O)C1 (configuration not stated)	·	·	-12%	-4.4%
CCOC(=O)C1=C(C)OC(N)=C(C#N)C1c1cc(Cl)c(OCC(N)=O)c(OC)c1 (configuration not stated)	-3%	9	-12%	-2.6%
COC(=O)C1C(O)=CC(=O)CC1C (configuration not stated)	-9%	-13	-27%	2.7%
Cc1ccc(NC(=O)Cn2nc(C(=O)O)c3ccccc3c2=O)c([N+](=O)[O-])c1	1%	·	-3%	0.4%
Cc1cccc(CCNC(=O)CCS(=O)(=O)c2ccc(Br)cc2)c1	-6%	3	4%	-0.5%
CCOCCCNC(=O)c1oc2ccc3c(c2c1C)C(O)CC(C)(C)O3 (configuration not stated)	-21%	·	1%	-0.4%
CCOC(=O)CSc1nc2sc3c(c2c(=O)n1-c1ccc(OC)cc1)CCN(C)C3	0%	·	-19%	?
Cc1ccc(CS(=O)(=O)CCC(=O)NCCCOC(C)C)cc1	-2%	7	9%	4.3%
CC(C)c1ccc2oc(=O)cc(CN3CCCCC3)c2c1	-14%	·	15%	1.8%
C/C=C(/C)C(=O)Nc1cccc(C2=NOC3(C2)C[C@@H](C(N)=O)N(C(=O)/C=C/CC)C3)c1 (some centres not stated)	3%	-4	0%	-0.7%
O=C(O)c1cc(=O)c2c(OCC(O)COc3cccc4oc(C(=O)O)cc(=O)c34)cccc2o1	-2%	6&-1&-4&9&6	1%	0.4%
CCCC1(C)NC(=O)c2ccccc2O1 (configuration not stated)	5%	1	-2%	3.2%
CCN(CC)CCCNc1nc(-c2ccccc2)nc2ccccc12	-15%	-3	6%	0.0%
c1ccc(Nc2nnc(-c3cccc4ccccc34)o2)cc1	-75%	1	3%	0.5%
O=C(NCCC(=O)N1CCOCCOCCOCCOCC1)OCc1ccccc1	-2%	5	-13%	-5.0%
O=C(c1cccc(NS(=O)(=O)c2ccc(Br)cc2)c1)N1CCN(c2ccccc2O)CC1	·	·	11%	-4.4%
CCOC(=O)[C@H]1[C@H]2COc3ccc(Cl)cc3[C@@H]2N2C(=O)c3cc(Cl)ccc3NC(=O)[C@@]12C	·	·	-6%	1.1%
COC(=O)c1ccc(NC(=O)Cn2c([N+](=O)[O-])cnc2C)cc1	1%	·	4%	1.6%

Next results
SMILES	miR-21 reporter	GLA inh pH 4.5	Rango dissoc inh	Rango complex inh
O=[N+]([O-])c1cc([N+](=O)[O-])c(Oc2c(F)ccc(F)c2F)cc1NN1CCCCC1	1%	·	25%	3.7%
CNC(=O)c1[nH]cnc1C(=O)N[C@@H](C)C(=O)OC(C)(C)C	0%	0	1%	-1.8%
Cc1ccn(C(=O)c2ccc(NC(=O)C3CC3)cc2)n1	-5%	-1	7%	-2.2%
CCOc1ccccc1NC(=O)c1cc(C(=O)c2cc(Br)ccc2O)coc1=N	-2%	-6	-9%	1.0%
CCOC(=O)c1cnc2c(C)c(Cl)ccc2c1Nc1ccc(S(=O)(=O)Nc2ncccn2)cc1	-1%	-5	·	·
Nc1nnc(CC(=O)N/N=C/c2ccc(-c3ccc(F)cc3)o2)s1	-11%	-5	-9%	3.6%
COc1ccc(-c2csc3nc(C)n(-n4cccc4)c(=O)c23)cc1	0%	2	11%	?
O=S1(=O)CC(N2CCCCC2)C(N2CCCCC2)C1 (configuration not stated)	-2%	4	12%	?
Cc1sc2ncnc(SCC(=O)NC3CC3)c2c1C	-1%	-3	17%	-0.4%
COc1cc(/C=C/C(=O)OCC(=O)N2CCCCCC2)ccc1OCC#N	3%	3	-16%	0.2%
Cc1c(NC(=O)C(C)OC(=O)/C=C/c2ccc3c(c2)OCO3)c(=O)n(-c2ccccc2)n1C (configuration not stated)	-16%	-3	-7%	?
CN(C)S(=O)(=O)c1ccc(-c2cn3ccccc3n2)cc1	-38%	10	-5%	4.9%
Cc1cccc(NC(=S)N/N=C/c2ccc(Cl)c([N+](=O)[O-])c2)c1	0%	2	0%	-1.3%
Cc1nn(C)c(C)c1S(=O)(=O)N(CC(=O)N1CCc2ccccc21)c1ccc(C(C)C)cc1	-3%	-3	14%	-2.8%
NC(=O)c1c(NC(=O)c2ccccc2)sc2c1CCC2	-47%	·	-1%	0.4%
COC(=O)CC(=O)CSc1nc2c(cc1C#N)CCC2	-29%	-7	?	?
O=C(Nc1ccc(N2CCOCC2)cc1)c1cn2ccccc2n1	-34%	-4	-12%	1.6%
OCC1(Cc2ccccc2C(F)(F)F)CCN(Cc2cccc3cnccc23)CC1	-3%	-10	1%	0.9%
COc1cccc(C(=O)N2CCC(C(=O)NCc3ccco3)CC2)c1	3%	·	10%	3.6%
Cc1ccc(SCC(=O)NNC(=O)CNC(=O)c2ccccc2F)cc1	·	·	0%	?
CCCC(=O)Nc1ccc(C(=O)N/N=C/c2ccc[nH]2)cc1	1%	-5	-13%	-0.7%
CCN(CC)c1ccc(CNc2nc3ccccc3n2CCN2CCOCC2)cc1	15%	-2	-20%	-0.2%
CCn1c(=O)c(C(=O)Nc2ccccc2F)c(O)c2ccccc21	-16%	·	5%	-0.2%
CC(C)C[C@H](NC(=O)c1nc[nH]c1C(=O)NCCCCCNC(=O)OC(C)(C)C)C(=O)OC(C)(C)C	11%	?	12%	-3.4%
CCC(C)NC(=O)Nc1ccc(Br)cc1 (configuration not stated)	-25%	-4	14%	-3.3%
CC(=O)N(C(C)=O)c1c(C#N)c(C)n(-c2ccccc2)c1C(=O)c1ccccc1	-12%	3	-23%	-0.7%
O=C(NC1CCCC1)C1CCCN1C(=O)Nc1ccc(Cl)cc1 (configuration not stated)	-2%	-3	16%	0.0%
O=C(O)CCc1ncc(C(F)(F)F)cc1Cl	1%	-7	0%	-0.8%
O=C(NNC(=O)c1ccccc1O)c1ccc(Br)cc1	-9%	·	1%	-0.7%
O=C(OCC(=O)N1CCN(C(=O)COC(=O)c2ccc(O)cc2O)CC1)c1ccc(O)cc1O	·	·	-10%	-1.4%

Among those listed so far, these contain an aryl methoxy group.
SMILES	miR-21 reporter	GLA inh pH 4.5	Rango dissoc inh	Rango complex inh
COc1cc(NS(=O)(=O)c2ccc(N=Cc3c(C)[nH]n(-c4ccccc4)c3=O)cc2)nc(OC)n1	-6%	-29	-7%	-0.6%
COc1cc(OC)cc(C(=O)Nc2ccc3c(c2)CCCN3C(=O)c2cccs2)c1	22%&-4%	·	-9%	-6.8%
CCOc1ccc(NCc2cc3cc(OC)ccc3[nH]c2=O)cc1	9%	-2	?	?
COc1cc(OC)cc(-c2cc3nc(C)c(CCC(=O)O)c(=O)n3[nH]2)c1	0%	3	-12%	-3.8%
COc1ccc(NS(=O)(=O)c2cc(C)ccc2OC)cc1OC	-2%	-8	1%	0.1%
CCOC(=O)C1=C(C)OC(N)=C(C#N)C1c1cc(Cl)c(OCC(N)=O)c(OC)c1 (configuration not stated)	-3%	9	-12%	-2.6%
CCOC(=O)CSc1nc2sc3c(c2c(=O)n1-c1ccc(OC)cc1)CCN(C)C3	0%	·	-19%	?
COc1ccc(-c2csc3nc(C)n(-n4cccc4)c(=O)c23)cc1	0%	2	11%	?
COc1cc(/C=C/C(=O)OCC(=O)N2CCCCCC2)ccc1OCC#N	3%	3	-16%	0.2%
COc1cccc(C(=O)N2CCC(C(=O)NCc3ccco3)CC2)c1	3%	·	10%	3.6%

Three entries from above, sorted by the value under GLA inh pH 4.5, low to high.
SMILES	miR-21 reporter	GLA inh pH 4.5	Rango dissoc inh	Rango complex inh
Cc1cc2c(ccc3[nH]onc32)n1	-5%	-23	?	?
CCOC(=O)c1cnc2c(C)c(Cl)ccc2c1Nc1ccc(S(=O)(=O)Nc2ncccn2)cc1	-1%	-5	·	·
Cc1ccc(CS(=O)(=O)CCC(=O)NCCCOC(C)C)cc1	-2%	7	9%	4.3%

High-throughput results as filed in PubChem.

This is a subset, so the mix of outcomes need not match the whole.
